SmPrx2 inh = Schistosoma mansoni Prx2 inhibition; AID 448; S. mansoni Prx2 activity coupled to TGR/GSH (TGR is thioredoxin glutathione reductase), NADPH fluorescence loss, qHTS; some inactives read as strong as hits; actives 0.07% (n = 65,000); Potency, µM; active means full or partial inhibition curve with a strong effect at the top dose; inconclusive means weaker partial or single-point curve; inactive means no accepted curve; note: series up to 57 µM; many of its hits are not listed in these tables
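Enzyme mix: 100 uM NADPH, 25 nM TGR, 700 uM GSH, 50 nM Prx2 in 100 mM phosphate pH 7.4, 10 mM EDTA, 0.01% Tween-20. 15 min RT with compound; NADPH/GSH added, H2O2 starts reaction; NADPH fluorescence read 8 min.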
Anthrax LT inh = inhibitors of anthrax lethal toxin internalization. Potency, µM (series often up to 40 µM), without a hit: at the top dose activity change, negative = inhibition, most hits filed as inhibitors. actives 0.67% (n = 70,000). Cells, anthrax lethal toxin internalization, FRET ratio (460/530). AID 912; active = well fitted falling ratio curve with the 530 nm signal flat; inconclusive = other ratio curves, or a change in one channel alone; inactive = flat curves in the ratio and both channels; the % refers to the ratio; note: % is set by controls: 0 for no effect and ±100 for the full control effect; nearly all actives have a fitted effect of over 50% in size; tested in ME-180 cells; beta-lactamase reporter
* hit, by the source's call; [ ] = another dose, or the depositor's remark. Potency is the fitted concentration of half-maximal effect.

The opening 6 records, ahead of the listing:
Results for CN(C)c1ccc(C(c2nnnn2C2CCCCC2)N2CCN(C(=O)c3ccco3)CC2)cc1 (configuration not stated) ?
SmPrx2 inh: >57; Anthrax LT inh: -3.7%

What do the screens show for `O=C(NCC1CCCO1)c1ccc2c(c1)C(=O)N(C1CCCCC1)C2=O` (configuration not stated)?
SmPrx2 inh: >57; Anthrax LT inh: -28.1%

What do the screens show for `Nc1nc2c(nc(Br)n2[C@@H]2O[C@H]3COP(=O)(O)O[C@@H]3[C@H]2O)c(=O)[nH]1`?
SmPrx2 inh: >57; Anthrax LT inh: -11.9%

What do the screens show for `Oc1ccc2ccccc2c1CN1CCN(c2ccccc2F)CC1`?
SmPrx2 inh: >57; Anthrax LT inh: inconclusive

What do the screens show for `COc1ccc2nc(NC(=O)c3ccoc3C)sc2c1`?
Anthrax LT inh: 4.3%

What do the screens show for `CCOc1cccc(-c2nnc(SCC(=O)Nc3cccc(OC)c3)n2N)c1`?
SmPrx2 inh: >57

The whole of this part (from the top)
Results for CN(C)c1ccc(C(c2nnnn2C2CCCCC2)N2CCN(C(=O)c3ccco3)CC2)cc1 (configuration not stated) ?
SmPrx2 inh: >57; Anthrax LT inh: -3.7%

What do the screens show for `O=C(NCC1CCCO1)c1ccc2c(c1)C(=O)N(C1CCCCC1)C2=O` (configuration not stated)?
SmPrx2 inh: >57; Anthrax LT inh: -28.1%

What do the screens show for `Nc1nc2c(nc(Br)n2[C@@H]2O[C@H]3COP(=O)(O)O[C@@H]3[C@H]2O)c(=O)[nH]1`?
SmPrx2 inh: >57; Anthrax LT inh: -11.9%

What do the screens show for `Oc1ccc2ccccc2c1CN1CCN(c2ccccc2F)CC1`?
SmPrx2 inh: >57; Anthrax LT inh: inconclusive

What do the screens show for `COc1ccc2nc(NC(=O)c3ccoc3C)sc2c1`?
Anthrax LT inh: 4.3%

What do the screens show for `CCOc1cccc(-c2nnc(SCC(=O)Nc3cccc(OC)c3)n2N)c1`?
SmPrx2 inh: >57

How did Cc1nc2ccccc2n1-c1nc(-c2ccco2)cc(C(F)(F)F)n1 do in these assays?
SmPrx2 inh: >57; Anthrax LT inh: -22.6%

Results for O=C1CC(N2CCN(c3ccccc3Cl)CC2)C(=O)N1c1ccccc1 (configuration not stated) ?
SmPrx2 inh: >57; Anthrax LT inh: -5.6%

What do the screens show for `O=C(c1cnn2c(C(F)(F)F)cc(-c3ccco3)nc12)N1CCCc2ccccc21`?
SmPrx2 inh: >57; Anthrax LT inh: -4.0%

How did CCCCOC(=O)C1=C(C)Nc2ncnn2C1c1cc(OC)c(OC)cc1OC (configuration not stated) do in these assays?
SmPrx2 inh: >57; Anthrax LT inh: -0.1%

Results for COc1ccc(CNC(=O)[C@H]2C[C@@H]2[C@H](NP(=O)(c2ccccc2)c2ccccc2)c2ccccc2)cc1OC ?
SmPrx2 inh: >11.4; Anthrax LT inh: inconclusive

How did COCCNc1nc(=S)[nH]c2cc(OC)c(OC)cc12 do in these assays?
SmPrx2 inh: >57; Anthrax LT inh: 12.4%

Results for N#CCCN1CCN(CCC#N)CC1 ?
SmPrx2 inh: >57; Anthrax LT inh: -15.6%

Results for COc1ccccc1CN1CCC2(CC1)CCN(C(C)=O)CC2 ?
SmPrx2 inh: >57; Anthrax LT inh: -2.7%

How did NC(=O)CCn1nc(-c2ccccc2)c2ccccc2c1=O do in these assays?
SmPrx2 inh: >57; Anthrax LT inh: -17.1%

Results for N#Cc1c(C(F)(F)F)cc(-c2ccccc2)nc1SCc1nc(N)nc(N2CCOCC2)n1 ?
SmPrx2 inh: >57; Anthrax LT inh: -9.6%

What do the screens show for `COc1ccc2[nH]c(=O)c(CN(Cc3nnnn3Cc3ccccc3)CC3CCCO3)cc2c1` (configuration not stated)?
SmPrx2 inh: >57; Anthrax LT inh: -13.0%

What do the screens show for `CS(=O)(=O)N1CCc2cc(C(=O)OCC(=O)c3ccccc3)ccc21`?
SmPrx2 inh: >57; Anthrax LT inh: -0.4%

What do the screens show for `c1ccc2c(CN3CCN(Cc4c[nH]c5ccccc45)CC3)c[nH]c2c1`?
SmPrx2 inh: >57; Anthrax LT inh: -4.3%[8 µM]

Results for COc1ccccc1Cn1c(=O)[nH]c2cccnc21 ?
SmPrx2 inh: >57; Anthrax LT inh: 4.7%

What do the screens show for `O=C(NCc1ccc2c(c1)OCO2)C(c1ccco1)N(C(=O)c1csnn1)c1ccccc1` (configuration not stated)?
SmPrx2 inh: >57; Anthrax LT inh: -19.8%

How did Cc1ccccc1OCCNC(=O)CNC(=O)c1ccccc1O do in these assays?
SmPrx2 inh: >57; Anthrax LT inh: 0.0%

How did CC(=O)N1CCc2cc(S(=O)(=O)NC(C(=O)NCc3ccccc3)C(C)C)ccc21 (configuration not stated) do in these assays?
SmPrx2 inh: >57; Anthrax LT inh: 1.0%

What do the screens show for `Cc1ccc(-c2nc3cnccn3c2Nc2ccc3c(c2)OCCO3)o1`?
SmPrx2 inh: >57; Anthrax LT inh: 6.3%

What do the screens show for `C=CCn1c(SCC(=O)c2ccc(CNC(C)=O)o2)nc2scc(C3CC3)c2c1=O`?
SmPrx2 inh: >57; Anthrax LT inh: 3.0%

Results for Cc1cccc(CS(=O)(=O)Cc2ccc(C(=O)O)o2)c1 ?
SmPrx2 inh: >57; Anthrax LT inh: 8.1%

Results for CC(Oc1ccccc1)C(=O)NC1CCN(Cc2ccccc2)CC1 (configuration not stated) ?
SmPrx2 inh: >57; Anthrax LT inh: -13.6%

What do the screens show for `Cc1ccc2c(C(=O)CN3CCN(c4ccccc4)CC3)c(C)[nH]c2c1`?
SmPrx2 inh: >57; Anthrax LT inh: -4.8%

Results for CCCCNC(=O)C(c1ccc(OCC(=O)OC)c(C(=O)OC)c1)N(CCC1=CCCCC1)C(=O)CCCCCN1C(=O)NC(c2ccc(-c3ccccc3)cc2)C(C(=O)OCc2ccccc2)=C1C (configuration not stated) ?
Anthrax LT inh: 10.4%

Results for CCc1ccc(NC2=NCC(=O)N2c2ccc3c(c2)OCCO3)cc1 ?
SmPrx2 inh: >57; Anthrax LT inh: -4.5%

Results for O=C(CN1CCN(S(=O)(=O)c2ccc(F)cc2)CC1)Nc1ccc2c(c1)OCCO2 ?
SmPrx2 inh: >57; Anthrax LT inh: 1.1%

Results for COc1ccccc1N(C(=O)c1snc(C(N)=O)c1N)C(C(=O)NC1CCCC1)c1ccco1 (configuration not stated) ?
SmPrx2 inh: >57; Anthrax LT inh: inconclusive

How did CCN(CC)c1nc(Nc2ccccc2)nc(Oc2ccc(=O)n(C)n2)n1 do in these assays?
SmPrx2 inh: >57; Anthrax LT inh: -14.5%

Results for Cc1noc(C)c1S(=O)(=O)Nc1ccc(C(=O)N2CCN(c3ccc(Cl)cc3)CC2)cc1 ?
SmPrx2 inh: >57; Anthrax LT inh: -5.6%

How did C=C1Cn2c(nnc2-c2ccc(Cl)cc2)S1 do in these assays?
SmPrx2 inh: >57; Anthrax LT inh: 1.3%

How did CCOC(=O)CSc1nc2ccccc2c(=O)n1CC1COc2ccccc2O1 (configuration not stated) do in these assays?
SmPrx2 inh: >57; Anthrax LT inh: -2.6%

What do the screens show for `O=c1cc(-c2ccccc2)c2ccccc2[nH]1`?
SmPrx2 inh: >57; Anthrax LT inh: -11.6%

How did Cc1c(NC(=O)c2ccccc2N)cccc1C(=O)O do in these assays?
SmPrx2 inh: >57; Anthrax LT inh: -1.9%

How did CCOc1ccc(N2C(=O)CC(SC(=NC)Nc3cccc(F)c3)C2=O)cc1 (configuration not stated) do in these assays?
SmPrx2 inh: >57; Anthrax LT inh: -13.3%

Results for CCn1nnc(-c2ccccc2NS(=O)(=O)c2ccc(C(=O)OC)cc2)n1 ?
SmPrx2 inh: >57; Anthrax LT inh: -1.3%

Results for CCOc1ccccc1C(=O)N1CCN=C1SC ?
SmPrx2 inh: >57; Anthrax LT inh: inconclusive

How did COC(=O)c1nc(-c2ccc(C)cc2)oc1N(C)C do in these assays?
SmPrx2 inh: >57; Anthrax LT inh: -4.8%

Results for O=C(NCc1ccco1)c1cnn2c(C(F)(F)F)cc(-c3cccs3)nc12 ?
SmPrx2 inh: >57; Anthrax LT inh: -2.2%

What do the screens show for `CC1CCc2nn(CC(=O)Nc3ccc(F)cc3F)cc2C1` (configuration not stated)?
SmPrx2 inh: >57; Anthrax LT inh: -26.0%

Results for O=c1[nH]c2cc3c(cc2cc1C(c1nnnn1Cc1ccccc1)N1CCN2CCCC2C1)OCCO3 (configuration not stated) ?
SmPrx2 inh: >57; Anthrax LT inh: inconclusive

What do the screens show for `CC(=O)OCC1=C(C(=O)[O-])N2C(=O)[C@@H](NC(=O)CCC[C@@H](N)C(=O)[O-])[C@@H]2SC1.[Zn+2]`?
SmPrx2 inh: >57; Anthrax LT inh: 1.3%

How did O=C(O)CCCC(=O)N1CCN(c2nc(-c3ccccc3)c3ccccc3n2)CC1 do in these assays?
SmPrx2 inh: >57; Anthrax LT inh: 1.7%

Results for O=C(O)c1ccc(NS(=O)(=O)Cc2ccccc2)cc1 ?
SmPrx2 inh: >57; Anthrax LT inh: -13.8%[8 µM]

What do the screens show for `Cc1ccc(NC(=O)CC2SCCNC2=O)cc1Cl` (configuration not stated)?
SmPrx2 inh: >57; Anthrax LT inh: 7.9%

Results for CC(C)CNC(=O)CSc1nnc(CN2CCCCCC2=O)n1-c1ccccn1 ?
SmPrx2 inh: >57; Anthrax LT inh: -8.5%

Results for COc1ccc(OC)c(-c2csc(N(Cc3ccco3)C(=O)c3cccs3)n2)c1 ?
SmPrx2 inh: >57; Anthrax LT inh: inconclusive

What do the screens show for `Cn1c(SCC(=O)NCc2cccs2)nnc1-c1cccs1`?
SmPrx2 inh: >57; Anthrax LT inh: 3.1%

How did CCOC(=O)C1CCN(C(=O)c2ccc(Cl)c(NC3=NC4CS(=O)(=O)CC4S3)c2)CC1 (configuration not stated) do in these assays?
SmPrx2 inh: >57; Anthrax LT inh: 1.4%

How did CCc1ccc2c(COn3nnc4ccc(S(=O)(=O)N(C)C)cc43)cc(=O)oc2c1 do in these assays?
SmPrx2 inh: >57; Anthrax LT inh: inconclusive

Results for CCCCCn1c(CN(C)Cc2ccccc2)nc2c1c(=O)n(C)c(=O)n2C ?
SmPrx2 inh: >57; Anthrax LT inh: 18.2%

How did CCN(CC)c1ccc(C(NC(C)=O)NC(C)=O)cc1 do in these assays?
Anthrax LT inh: -8.6%

How did CCOC(=O)C1=C(C)Nc2ncnn2C1c1c[nH]c2ccccc12 (configuration not stated) do in these assays?
SmPrx2 inh: >57; Anthrax LT inh: 11.7%

What do the screens show for `CCOC(=O)N1CCC(NC2CCCCCCC2)CC1`?
Anthrax LT inh: -1.5%

What do the screens show for `COC(=O)c1cc(OC)c(OC)cc1NC(=O)CCC1CCCC1`?
SmPrx2 inh: >57; Anthrax LT inh: -5.0%

Results for COc1ccc(N(CC(=O)NC2CCCC2)C(=O)CCC(=O)Nc2cc(C)on2)c(OC)c1 ?
SmPrx2 inh: >57; Anthrax LT inh: -9.0%

How did CCOC(=O)CCN1C(=O)[C@H]2[C@H]3[C@H](O)[C@H](O)C/C(=N/NC(=O)OCc4ccccc4)[C@H]3CC[C@@H]2C1=O do in these assays?
Anthrax LT inh: 12.4%[8 µM]

What do the screens show for `O=C(CCc1nc2ccccc2[nH]1)N1CCN(C(=O)c2ccco2)CC1`?
SmPrx2 inh: >57; Anthrax LT inh: 11.1%

How did Cc1ccc(CNC(=O)CCNS(=O)(=O)c2ccc3c(c2)c(=O)n(C)c(=O)n3C)cc1 do in these assays?
SmPrx2 inh: inconclusive; Anthrax LT inh: -8.0%

How did O=C(CSc1ncnc2nc[nH]c12)NCCc1ccccc1 do in these assays?
Anthrax LT inh: -13.5%

How did CN(C)C(=O)CSc1nnc([C@@H](N)Cc2ccccc2)o1 do in these assays?
SmPrx2 inh: >57; Anthrax LT inh: 8.3%

Results for CCCn1ncc(C(=O)O)c1C ?
SmPrx2 inh: >57; Anthrax LT inh: -1.8%

How did O=C(Nc1ccc(Cc2ccncc2)cc1)c1ccc(S(=O)(=O)N2CCOCC2)cc1 do in these assays?
SmPrx2 inh: >57; Anthrax LT inh: -15.7%

What do the screens show for `CCn1c(C)nc2cc(-c3nnc(-c4c(-c5ccccc5)noc4C)o3)ccc21`?
SmPrx2 inh: >57

What do the screens show for `Cc1ccc(S(=O)(=O)N2c3ccccc3NC(=O)C2CC(=O)Nc2ccccc2)cc1` (configuration not stated)?
Anthrax LT inh: -5.5%

What do the screens show for `COC(=O)C(C)Sc1nc(-c2ccc(OC)cc2)nc2c1c(=O)n(C)c(=O)n2C` (configuration not stated)?
SmPrx2 inh: >57; Anthrax LT inh: 13.9%

How did Cn1nnnc1SCc1cccc(CSc2nnnn2C)n1 do in these assays?
SmPrx2 inh: >57; Anthrax LT inh: -9.2%

How did CCNc1ncc2nc(-c3cc(F)cc(F)c3)c(=O)n(CCOC)c2n1 do in these assays?
SmPrx2 inh: >57; Anthrax LT inh: -7.6%

What do the screens show for `COc1ccc(N2CCN(C(=O)CSc3nnc(Cn4nnc5ccccc54)n3C)CC2)cc1`?
SmPrx2 inh: >57; Anthrax LT inh: 4.2%

How did NC(N)=NC(N)=Nc1c(F)c(F)c(F)c(F)c1F do in these assays?
SmPrx2 inh: >57; Anthrax LT inh: -14.8%[8 µM]

Results for Cc1ccc(N(C(=O)C2CCC(=O)N2)C2(C(=O)NC3CCCCC3)CCCCC2)cc1 (configuration not stated) ?
SmPrx2 inh: >57; Anthrax LT inh: 4.7%

Bioassay records from PubChem BioAssay.

Only part of the results is shown, so the mix of outcomes need not match the whole.
